HTT promoter inh – inhibitors of huntingtin promoter activity | 0.93% of 48,000 active | HEK293 HTT promoter firefly luciferase reporter (activity 0% = vehicle and -100% = no light), 24 h | Potency, µM (highest dose often 57.5 µM), for inactives: top-dose activity change, negative = inhibition, actives largely listed as inhibitors; active = well fitted inhibition curve with a large enough effect; inconclusive = small, poorly fitted or top-dose-only effect; inactive = no such curve, though single readings can be large or run the other way; also: nearly all actives have a fitted effect of over 50% in size
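HEK293 Fluc reporter, 2,500 cells/well, 24 h pre-culture; cpds up to 57.5 uM final, 24 h 37 degrees C; Dual-Glo, 10 min RT; normalized vehicle = 0%, zero RLU = -100%.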
PMP22 txn prim – modulators of PMP22 gene transcription in S16 Schwann cells; 2% of 43,000 active; Potency, µM (series often up to 57.5 µM), for inactives: at the top dose activity change, negative = inhibition, hits mostly inhibitors; S16 Pmp22-F2sN Schwann cells (luciferase reporters placed in the Pmp22 gene), FLuc/NLuc coincidence luminescence, 24 h; active = clear falling dose curves in both reporters; inconclusive = both reporters move, but less clearly or upward; inactive = either reporter flat; the % is the NLuc reporter signal; also: % is scaled to controls: 0 for no effect and ±100 for the full control effect; some results filed as inactive show a strong effect at the top dose
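qHTS, 1536-well. Cells seeded, compounds added by pin tool, 24 h 37C. Nano-Glo reagent 1 (lysis/FLuc), 10 min RT, read; Stop&Glo, 10 min RT, read NLuc.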
Active calls of the source: *; & = joins results of further samples; [ ] = another dose, or the depositor's remark. Potency is read from the fitted curve at half-maximal effect. Only part of the results is shown; the hit share may differ from the screen's.

For CC(=O)N1CCCc2cc(S(=O)(=O)N3CCC(C(=O)Nc4ccc(C)cc4Cl)CC3)ccc21 the results were HTT promoter inh inconclusive and PMP22 txn prim inconclusive.
`CCc1ccc(NC(=O)Cc2c(C(=O)O)c(C)cn2C)cc1` gave HTT promoter inh -8% and PMP22 txn prim inconclusive.
Screening Cc1cccc(C(=O)n2nc(-c3cccnc3)nc2NCc2ccccc2)c1 returned HTT promoter inh -30% and PMP22 txn prim -44%.
Screening Cc1cc(C)cc(NC(=O)Cn2nc(N3CCN(c4ccccc4)CC3)ccc2=O)c1 returned HTT promoter inh -14% and PMP22 txn prim -4%.
For CCOC(=O)c1ccc(N2C(=O)c3n[nH]c(-c4ccco4)c3C2c2ccc(O)c(OC)c2)cc1 (configuration not stated) the results were HTT promoter inh -35% and PMP22 txn prim 11µM*.
Cc1ccc(NC(=O)CC(C)S(=O)(=O)c2ccc3c(c2)NC(=O)CO3)cc1C (configuration not stated) was read as HTT promoter inh 1% and PMP22 txn prim -17%.
Screening Cc1cccc(N2CCN(C(=O)Cn3c(C)c4cnn(-c5ccccc5)c(=O)c4c3C)CC2)c1C returned HTT promoter inh 10µM* and PMP22 txn prim 12µM*.
Screening Cc1ccc(C)c(CSc2nc3ncccc3[nH]2)c1 returned HTT promoter inh -15% and PMP22 txn prim 9%.
Screening Cc1ccc(C(c2sc3nc(-c4ccco4)nn3c2O)N2CCCC2)cc1 (configuration not stated) returned HTT promoter inh 9% and PMP22 txn prim 11%.
Screening CCN(CC)S(=O)(=O)c1ccc2c(c1)N(CC(=O)NCc1ccccc1)C(=O)C1CCCCN21 (configuration not stated) returned HTT promoter inh -24% and PMP22 txn prim -3%.
For CNC(=O)C1CCC(Cn2c(=O)c3sccc3n(CC(=O)Nc3ccc(C)cc3C)c2=O)CC1 (configuration not stated) the results were HTT promoter inh -11% and PMP22 txn prim 9%.
Screening Cc1ccc(S(=O)(=O)c2cn(C)c3cc(N4CCN(c5ccccc5)CC4)c(F)cc3c2=O)cc1 returned HTT promoter inh -5% and PMP22 txn prim -4%.
Screening Cc1ccccc1NC(=O)c1c(NC(=O)c2ccncc2)sc2c1CCC(C(C)(C)C)C2 (configuration not stated) returned HTT promoter inh -21% and PMP22 txn prim inconclusive.
For CNCc1ccccc1 the results were HTT promoter inh 9%.
Screening Cc1ccc(-c2c(C(=O)NCCc3ccccc3)oc(=O)c3ccccc23)cc1 returned HTT promoter inh -28% and PMP22 txn prim -9%.
Fc1ccc(-c2nc3c4c(-c5ccccc5)c(-c5ccccc5)oc4ncn3n2)cc1 was read as HTT promoter inh -17% and PMP22 txn prim -2%.
Screening CNc1ccc(-c2nc(-c3ccco3)no2)cc1[N+](=O)[O-] returned HTT promoter inh 64%[activator] and PMP22 txn prim -23%.
COc1ccc(N2CCN(CCCNC(=O)c3nnc(Cc4ccccc4Cl)o3)CC2)cc1 was read as HTT promoter inh inconclusive and PMP22 txn prim inconclusive.
`COc1ccc(Cn2c(=O)[nH]c3cc(C(=O)N4CCN(c5ccccc5)CC4)ccc3c2=O)cc1` gave HTT promoter inh -5% and PMP22 txn prim -3%.
`Cc1ccc(-n2ncc(C(=O)N3CCN(c4ccccc4F)CC3)c2C2CCN(C(=O)OC(C)(C)C)CC2)cc1C` gave HTT promoter inh 4% and PMP22 txn prim 7%.
Screening COc1ccc(NCc2cc3cc4c(cc3n(CC(=O)Nc3ccccc3)c2=O)OCO4)cc1 returned HTT promoter inh -13% and PMP22 txn prim 8%.
For Fc1ccccc1N1CCN(c2nc3ccccc3c3nc(-c4ccccc4)nn23)CC1 the results were HTT promoter inh -5% and PMP22 txn prim -21%.
Cc1ccc2oc(-c3cccc(NC(=O)c4cccc5c(Br)cccc45)c3)nc2c1 was read as HTT promoter inh 10% and PMP22 txn prim -6%.
Cc1ccc(Cl)cc1-n1ncc2c(NCc3ccc(F)cc3)ncnc21 was read as HTT promoter inh inconclusive and PMP22 txn prim -22%.
For CCc1cccc(NC(=O)c2nnn(Cc3ccc(SC)cc3)c2N)c1 the results were HTT promoter inh 4% and PMP22 txn prim -25%.
Screening CCCC(=O)O[C@]1(C(=O)CO)CC[C@H]2[C@@H]3CCC4=CC(=O)CC[C@]4(C)[C@H]3[C@@H](O)C[C@@]21C returned HTT promoter inh 3%.
`CC(=O)N1CCc2c(sc3c2c(=O)n(-c2ccccc2C)c(=O)n3CC(=O)Nc2ccccc2)C1` gave HTT promoter inh 5% and PMP22 txn prim -58%.
Screening CCCCOc1cccc(NC(=O)c2cccc(C(=O)Nc3cccc(OCCCC)c3)c2)c1 returned HTT promoter inh 23% and PMP22 txn prim -16%.
For Cc1ccc(C)c(N2CCN(C(=O)Cn3nc(Cc4cccnc4)c4ccccc4c3=O)CC2)c1 the results were HTT promoter inh inconclusive and PMP22 txn prim inconclusive.
`CCC(=O)N1CCc2cc(Br)cc(S(=O)(=O)N(CC)Cc3ccccc3)c21` gave HTT promoter inh -3% and PMP22 txn prim -16%.
`CC(C)(C)C(=O)Cn1c(=O)n(CCCCCC(=O)NCc2ccccc2Cl)c(=O)c2sccc21` gave HTT promoter inh -28% and PMP22 txn prim inconclusive.
`CO[C@@H]1[C@@H](O)[C@H](O)[C@@H](n2c3c(Cl)cccc3c3c4c(c5c6cccc(Cl)c6[nH]c5c32)C(=O)NC4=O)O[C@@H]1CO` gave HTT promoter inh inconclusive.
`Cc1cccc(C#Cc2ccccc2)n1` gave HTT promoter inh -2%.
CCc1ccccc1N1CC(c2nc3ccccc3n2CCCOc2ccc(Cl)cc2)CC1=O (configuration not stated) was read as HTT promoter inh 16% and PMP22 txn prim -39%.
CCOc1ccc(CCNC(=O)c2cc3c(-c4ccccc4F)nn(C)c3s2)cc1OCC was read as HTT promoter inh inconclusive and PMP22 txn prim inconclusive.
Screening CCOC(=O)N1CCN(S(=O)(=O)N2CCCC(C(=O)NCc3ccccc3OC)C2)CC1 (configuration not stated) returned HTT promoter inh inconclusive and PMP22 txn prim inconclusive.
`COc1ccc(C)cc1NS(=O)(=O)c1ccc2c(c1)n(C)c(=O)n2C` gave HTT promoter inh -7% and PMP22 txn prim 7%.
`Cc1ccc(CNC(=O)CN(c2ccc(C(C)C)cc2)S(=O)(=O)c2c(C)n[nH]c2C)cc1` gave HTT promoter inh -20% and PMP22 txn prim -5%.
Screening COc1ccc2oc(=O)cc(CN3CCN(c4ccccc4F)CC3)c2c1 returned HTT promoter inh 0% and PMP22 txn prim inconclusive.
CC(=O)OCC(=O)NCCCOc1cccc(CN2CCCCC2)c1 was read as HTT promoter inh 3%.
`O=C(O)CC(O)C(=O)O` (configuration not stated) gave HTT promoter inh -3%.
For CCCCOc1ccc(C(=O)Nc2ccc(S(=O)(=O)Nc3nc(C)cc(C)n3)cc2)cc1 the results were HTT promoter inh inconclusive and PMP22 txn prim -29%.
`N[C@@H](Cc1ccc(O)c(O)c1)C(=O)O` gave HTT promoter inh 7%.
CCc1sc(Nc2cccc(C)c2)nc1-c1cc2cccc(OC)c2oc1=O was read as HTT promoter inh -12% and PMP22 txn prim inconclusive.
Cc1ccc(-n2nc3ccc(NC(=O)Cc4ccc(Cl)cc4)cc3n2)cc1 was read as HTT promoter inh -11% and PMP22 txn prim -16%.
`COc1ccc(-c2noc(CN(C(C)C)S(=O)(=O)c3ccc(Br)cc3)n2)cc1` gave HTT promoter inh -14% and PMP22 txn prim -52%.
COCCCNC(=O)c1c(C)nn(-c2ccc(F)cc2)c1-n1cccc1 was read as HTT promoter inh -27% and PMP22 txn prim 4%.
`CCSc1nnc2c(n1)OC(c1cc(OC)c(OC)c(OC)c1)Nc1ccccc1-2` (configuration not stated) gave HTT promoter inh -4% and PMP22 txn prim -8%.
Screening CCCCNC(=O)C1CCC(Cn2c(=O)c3sccc3n(CC(=O)N3CCCC3)c2=O)CC1 (configuration not stated) returned HTT promoter inh -5% and PMP22 txn prim -12%.
Screening COc1ccc(-c2nnc(SCC(=O)Oc3c(C)cccc3C)o2)cc1OC returned HTT promoter inh 2% and PMP22 txn prim -7%.
CCOC(=O)c1c(S(=O)(=O)NCC(=O)NCc2ccccc2)c(C)n(C)c1C was read as HTT promoter inh 2% and PMP22 txn prim 12%.
Screening CCOc1ccc(C(=O)c2cn(Cc3ccc(F)cc3)c3ccc(F)cc3c2=O)cc1 returned HTT promoter inh -16% and PMP22 txn prim inconclusive.
`CN(C)CCOC(c1ccccc1)c1ccccc1` gave HTT promoter inh inconclusive.
For CCCOc1cccc(C2c3c(oc4ccc(F)cc4c3=O)C(=O)N2Cc2ccc3c(c2)OCO3)c1 (configuration not stated) the results were HTT promoter inh -7% and PMP22 txn prim -4%.
CN1CCN(C(=O)Cn2c(-c3cccs3)cc3cc(Cl)ccc32)CC1 was read as HTT promoter inh inconclusive and PMP22 txn prim inconclusive.
O=C(CSc1nnc(-c2ccccc2F)o1)Nc1ccccc1Cl was read as HTT promoter inh 43%[activator] and PMP22 txn prim 9%.
Screening CCC(=O)N1CCCc2cc(S(=O)(=O)N3CCC(C(=O)NCc4ccc(F)cc4)CC3)ccc21 returned HTT promoter inh -32% and PMP22 txn prim 7%.
For CN(C)c1ccc(/C=C/c2noc(-c3ccccc3O)n2)cc1 the results were HTT promoter inh -16% and PMP22 txn prim -5%.
`CC(NC(=O)Cn1ncc2c3ccccc3n(Cc3ccc(F)cc3)c2c1=O)c1ccccc1` (configuration not stated) gave HTT promoter inh -10% and PMP22 txn prim inconclusive.
Screening CC(=O)c1cccc(NC(=O)c2c(-c3ccccc3)c(-c3ccccc3)nn(C)c2=O)c1 returned HTT promoter inh -11% and PMP22 txn prim 1%.
Screening Cc1ccc(CNC(=O)CCS(=O)(=O)c2cc3c(cc2C)NC(=O)CO3)cc1 returned HTT promoter inh -2% and PMP22 txn prim -13%.
`CSc1nc2sc3c(c2c(=O)n1Cc1ccccc1)CCC(C(C)(C)C)C3` (configuration not stated) gave HTT promoter inh inconclusive and PMP22 txn prim 11%.
`COc1ccc(OC)c(CNC(=O)c2nn(-c3ccc(OC)c(Cl)c3)c(=O)c3c2c2ccccc2n3C)c1` gave HTT promoter inh 1% and PMP22 txn prim -11%.
For Cc1ccccc1Nc1sc(C(=O)c2ccc3c(c2)OCO3)c(N)c1S(=O)(=O)c1ccccc1 the results were HTT promoter inh inconclusive and PMP22 txn prim inconclusive.
Screening COc1cccc(NC(=O)C2CCC(CNS(=O)(=O)c3csc(C(N)=O)c3)CC2)c1 (configuration not stated) returned HTT promoter inh -7% and PMP22 txn prim inconclusive.
Screening Nc1cccc(-c2cn3ccsc3n2)c1 returned HTT promoter inh 74%[activator] and PMP22 txn prim -3%.
For Cc1cccc(C)c1NC(=O)Cn1nc(C)c2sc3ccccc3c2c1=O the results were HTT promoter inh -22% and PMP22 txn prim inconclusive.
Clc1ccc(C(c2ccccc2Cl)C(Cl)Cl)cc1 (configuration not stated) was read as HTT promoter inh -18%&-8%.
Screening Cc1oc(-c2cccc(Cl)c2)nc1CSc1nc2ncccc2[nH]1 returned HTT promoter inh -10% and PMP22 txn prim -59%.
For Cc1cc(=O)c2cc(C(=O)Nc3ccccc3C)ccc2[nH]1 the results were HTT promoter inh -8% and PMP22 txn prim -1%.
COc1cccc(OCc2nc3ccccc3n2C)c1 was read as HTT promoter inh 100%[activator] and PMP22 txn prim 6%.
Screening CCOc1ccc(CCNC(=O)c2ccc(CSCc3ccccc3C)o2)cc1OCC returned HTT promoter inh inconclusive and PMP22 txn prim inconclusive.
Screening COc1ccc(Cc2nc3ccc(C(=O)NCc4ccccc4C)cc3o2)cc1 returned HTT promoter inh inconclusive and PMP22 txn prim -4%.
For Cc1ccc(CNC(=O)CC2Oc3ccccc3NC2=O)cc1 (configuration not stated) the results were HTT promoter inh -2% and PMP22 txn prim -11%.

Screening data deposited in PubChem by National Center for Advancing Translational Sciences (NCATS).
